Assay outcomes deposited in PubChem by National Center for Advancing Translational Sciences (NCATS).
TRPML1 blocker = qHTS for Inhibitors of the Human Mucolipin Transient Receptor Potential 1 (TRPML1); TRPML1-inducible cells, Ca2+ dye fluorescence, FDSS; stronger effect = lower value; inhibition of EC80 agonist-evoked calcium signal; actives 0.02% (n = 390,000); activity change, negative = inhibition, % (test concentration not listed); Mucolipin-1 (Homo sapiens), Q9GZU1; in the data active means activity change below about -50%; inconclusive means about -30% to -50%; inactive means above about -30%;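 note: stimulus is agonist 54-4 at its EC80 concentration; % is set by controls: 0 for no effect and ±100 for the full control effect; compound concentration not given in the record; the text of the record puts the active cut at -80%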
Target sequence (Q9GZU1 whole entry, looked up): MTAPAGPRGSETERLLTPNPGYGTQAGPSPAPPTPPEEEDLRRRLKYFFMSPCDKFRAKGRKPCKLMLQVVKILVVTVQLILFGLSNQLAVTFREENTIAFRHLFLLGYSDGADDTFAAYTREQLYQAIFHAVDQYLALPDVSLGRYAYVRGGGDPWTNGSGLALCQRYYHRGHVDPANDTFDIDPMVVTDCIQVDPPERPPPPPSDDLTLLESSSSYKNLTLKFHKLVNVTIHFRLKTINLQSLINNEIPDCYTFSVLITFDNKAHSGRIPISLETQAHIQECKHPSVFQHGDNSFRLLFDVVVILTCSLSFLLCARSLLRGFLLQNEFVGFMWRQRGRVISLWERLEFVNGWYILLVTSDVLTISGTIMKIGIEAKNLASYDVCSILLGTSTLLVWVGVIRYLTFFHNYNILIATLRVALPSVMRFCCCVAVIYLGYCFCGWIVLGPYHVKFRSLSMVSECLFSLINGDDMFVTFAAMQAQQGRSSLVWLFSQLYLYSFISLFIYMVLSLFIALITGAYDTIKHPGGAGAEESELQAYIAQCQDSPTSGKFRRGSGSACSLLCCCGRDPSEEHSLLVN
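TRPML1-DL cells, Tet-induced overnight (~16 h, 37 °C) at 1,500 cells/well, were loaded with Ca8 no-wash dye plus quencher for 45-90 min at room temperature. Compounds were pinned during FDSS kinetic reading; agonist 54-4 at EC80 (4 uM final) then added.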
gsp antag = qHTS for Antagonists of gsp, the Etiologic Mutation Responsible for Fibrous Dysplasia/McCune-Albright Syndrome: qHTS; AID 624288, 2012; Potency, µM (highest dose often 76.9 µM), without a hit: at the top dose activity change, negative = inhibition, usual class: inhibitors; gsp-mutant cells, cAMP HTRF, 30 min; control for the full effect not named in the record; actives 0.4% (n = 340,000); active = falling curve of any shape with a large fitted effect; inconclusive = falling curve, mostly with a smaller effect; inactive = flat or rising curve; cell line not stated here;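 note: intracellular cAMP measured with PDE inhibitor Ro 20-1724 present during compound exposure; potency is the fitted concentration of half-maximal effect; % is set by controls: 0 for no effect and ±100 for the full control effect; nearly all actives have a fitted effect of over 65% in size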
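Cells, 2000/well, grown 16–24 h in DMEM 10% FBS with 0.5 mg/ml G418, then compounds plus […] (300 uM addition stock), 30 min at 37C. cAMP read by HTRF (cAMP-d2 and anti-cAMP antibody-K in lysis buffer) after 30 min RT.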
gsp agonist = qHTS for Agonist of gsp, the Etiologic Mutation Responsible for Fibrous Dysplasia/McCune-Albright Syndrome: qHTS | AID 624287, 2012 | actives 0.13% (n = 340,000) | gsp mutant cells, cAMP HTRF, 30 min; control for the full effect not named in the record | Potency, µM (doses to about 76.9 µM), for the others: top-dose activation (cAMP increase), hits mostly activators; active = well fitted activation curve with a large enough effect; inconclusive = small, poorly fitted or top-dose-only effect, or another doubt; inactive = no such curve, though single readings can be large or run the other way; cell line not stated here;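 note: phosphodiesterase inhibitor Ro 20-1724 added with compounds to block cAMP breakdown; potency is the fitted concentration of half-maximal effect; nearly all actives have a fitted effect of over 60% in size; about a fifth of the inactives were tested at one dose only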
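Cells in DMEM/10% FBS with G418 were pretreated with compounds in DMSO plus […] (300 uM stock) for 30 min at 37C. cAMP was measured by HTRF (cAMP-d2 plus anti-cAMP antibody-K) after 30 min at room temperature.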
ClpP mod = qHTS Assay for Activators of ClpP. ATP-dependent Clp protease proteolytic subunit (Bacillus subtilis (strain 168)), P80244. purified B. subtilis ClpP, FRET peptide cleavage, 20 min. Potency, µM (series often up to 57.5 µM), for the others: at the top dose activity change, negative = active. actives 1.9% (n = 340,000). AID 651965, 2013; active = well fitted falling curve with a large enough effect; inconclusive = small, poorly fitted or top-dose-only effect; inactive = no such curve, though single readings can be large or run the other way; note: potency is the fitted concentration of half-maximal effect; the source files actives as falling curves though it sought activators and does not explain the sign; nearly all actives have a fitted effect of over 65% in size; many hits overshoot -100%
Target sequence (P80244 whole entry, looked up): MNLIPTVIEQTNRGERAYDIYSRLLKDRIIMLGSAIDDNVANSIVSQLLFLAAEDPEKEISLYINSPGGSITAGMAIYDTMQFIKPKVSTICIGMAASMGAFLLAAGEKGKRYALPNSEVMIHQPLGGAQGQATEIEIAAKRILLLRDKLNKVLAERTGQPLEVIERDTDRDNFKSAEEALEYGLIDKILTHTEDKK
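Buffer: 100 mM Tris/HCl pH8, 100 mM KCl, 0.05% low protease BSA, 2.5% glycerol, 0.01% Tween-20. ClpP 10 microg/mL final; 20 min RT; delta FRET normalized to ADEP and DMSO controls.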
TRPML1 agonist = qHTS for Agonists of the Human Mucolipin Transient Receptor Potential 1 (TRPML1); Mucolipin-1 (Homo sapiens), Q9GZU1; TRPML1-expressing cells, Ca2+ dye fluorescence, FDSS; host cell line not named in the record; reference of the full effect not given here; activation, % (no concentration beside the values); actives 0.12% (n = 410,000); AID 624414, 2012; in the data active = activation above about 50%; inconclusive = about 30% to 50%; inactive = below about 30%; note: 0% is about no effect; the text of the record puts the active cut at 80%
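Agonist activity was taken from a 110 s kinetic Ca2+ dye read on the FDSS after pinning compounds onto TRPML1-DL cells. The cells were seeded at 1,500/well with Tet inducer, incubated about 16 h, then dye-loaded at room temperature.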
Menin MLL FP FL = qHTS Assay for Inhibitors Targeting the Menin-MLL Interaction in MLL Related Leukemias: Competition With Fluorescein Labeled MLL-derived Peptide. Fluorescence polarization, fluorescein-MLL peptide displacement from menin. 290,000 tested, under 10 active. FP activity change, % at 61.4 µM; inconclusive = falling polarisation curve, or a change in total fluorescence; inactive = total fluorescence flat and polarisation flat or rising; no compound was filed as active; the % refers to the polarisation; negative = inhibition;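 note: % of control where 0% means no effect; inhibitors lower the polarisation; unlabelled MLL peptide was the positive control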
* marks the source's active call; other numbers are inactive results; ? = inconclusive; / = no result given; & = joins results of further samples; [ ] = dose if it differs, or a comment. An unsorted share of the library; overall some 2.1% were active at least once.

SMILES | TRPML1 blocker | gsp antag | gsp agonist | ClpP mod | TRPML1 agonist | Menin MLL FP FL
CC(NS(=O)(=O)c1ccc(N)cc1)C1CC2CCC1C2 (stereo unspecified) | -2 | 3% | -8%[15.4 µM] | / | 1.6 | -0.3
COc1cc(NC(=O)c2sc3ncn(CC(=O)N4CCCCC4)c(=O)c3c2C)cc(OC)c1OC | -9 | 3% | -52%[inhibitor] | 0.1% | -0.3 | 6.7
C/C(=N\NC(=O)C(N)=O)c1ccc(Br)cc1 | -14 | 7% | -20%[15.4 µM] | 1.1% | -0.7 | -0.7
C=CCNC(=S)/N=c1\sccn1C | 26 | -4% | ? | -0.3% | 2.0 | 1.5
CCN(CC)c1ccc(S(=O)(=O)N2CCOCC2)cc1NC(=O)CSc1ccccc1 | 40 | -11% | -77%[inhibitor] | -18% | 1.9 | /
CC(C)(C)[C@H]1CCC(=O)N([C@H](CN=[N+]=[N-])Cc2ccccc2)CC1 | 17 | -9% | ? | -0.1%&2.6% | 0.6&-0.4 | 1.0
CC(=O)c1ccc(N2C(=NC(=O)C3CCCCC3)SC3CS(=O)(=O)CC32)cc1 (stereo unspecified) | 15 | -14% | ? | 1.3% | 5.9 | -2.1
COc1ccc(C2(CO)OC(CO)C(O)C2O)cc1 (stereo unspecified) | 15 | -8% | 1% | -1.8% | 0.7 | /
CN(C)CCCNC(=S)N(CCCO)Cc1cc2cc3c(cc2[nH]c1=O)OCO3 | -4 | 3% | -8% | 3.9% | 0.2 | -6.0
CC(=O)N1CCc2c(sc(NC(=O)CN3C(=O)CCC3=O)c2C(N)=O)C1 | 9 | 6% | ? | 3.9% | -0.1 | -15
COc1ccccc1NC(=O)c1ccccc1Oc1ccccc1 | -5 | 5.6µM* | -7% | -2.7% | 2.6 | 3.1
Cc1nc2ccc(NC(=O)c3cccnc3)cc2s1 | 14 | 16% | -5%[15.4 µM] | / | -0.4 | 4.9
C=CCNC(=S)NCCO | 13 | 4% | ? | 0.2% | 3.4 | 6.0
O=C(Nc1nnc2n1CCS2)c1ccco1 | 7 | 4% | -13%[15.4 µM] | / | -0.3 | 0.7
CC1(C)Cc2c(sc(NC(=O)c3ccc4ncsc4c3)c2C(N)=O)C(C)(C)N1 | -16 | 5% | 1%[15.4 µM] | / | -0.6 | 4.3
COc1ccc(-n2ncc(C(=O)NCc3ccc4c(c3)OCO4)c2C2CCN(C(=O)OC(C)(C)C)CC2)cc1 | 4 | / | / | -2.4% | 3.2 | /
O=C(COC(=O)c1cccnc1Cl)Nc1ccc(N2CCOCC2)cc1 | -1 | / | 12% | -3.9% | 0.3 | /
CC1(N2CCCCC2)C(=O)c2ccccc2C1=O | 13 | 11% | -3%[15.4 µM] | / | 0.0 | -8.3
O=C(Nc1nc(-c2cccs2)cs1)c1ccc(Cl)cc1 | -13 | -5% | 2% | -14% | 2.3 | 6.7
O=C(O)CCc1ccc(-c2ccccc2)n1NC(=O)c1ccco1 | -8 | -4% | -4% | -1.9% | 0.1 | 1.6
COc1ccc(CC(=O)N2CCc3cc(OC)c(OC)cc3C2C)c(OC)c1 (stereo unspecified) | -7 | 1% | 10% | / | 2.1 | 1.9
O=C(c1ccc(F)c(S(=O)(=O)N2CCOCC2)c1)N(c1ccccc1)c1ccccn1 | 11 | -30% | 18%[15.4 µM] | 0.4% | -0.2 | 1.3
CN(C)c1ccc(N=Nc2ccccc2Br)cc1 | 12 | 1% | ? | -1.9% | 3.6 | 3.3
S=C(NCCc1ccccc1)Nc1ccccc1N1CCOCC1 | -8 | 5% | 2% | / | 0.6 | 0.3
CN1CCN(S(=O)(=O)c2ccc(C(F)(F)F)cc2)C(c2ccccc2)C1 (stereo unspecified) | -4 | 4% | -7% | 0.2% | 27 | /
(list continues)
SMILES | TRPML1 blocker | gsp antag | gsp agonist | ClpP mod | TRPML1 agonist | Menin MLL FP FL
COc1ccc(NC(=O)CN2C(=O)C(C)Oc3ccccc32)cc1OC (stereo unspecified) | -4 | -6% | -18%[15.4 µM] | -1.3% | -0.7 | 0.0
COc1cccc(NC(=O)CN(C)C(=O)c2cccc(S(=O)(=O)N3CC4(C)CC3CC(C)(C)C4)c2)c1 (stereo unspecified) | -1 | ? | 22% | -1.7% | 1.4 | /
NS(=O)(=O)c1ccc(CCNS(=O)(=O)c2ccccc2)cc1 | -16 | 4% | -41%[inhibitor] | / | -0.3 | -5.9
CCOc1ccc(N(C)S(=O)(=O)c2cc(-c3cc(C)no3)ccc2C(C)C)cc1 | 21 | 2% | -2% | -4.1% | 0.2 | 3.5
CCOc1ccc(NC(=O)CCNS(=O)(=O)c2cccc3nsnc23)cc1 | -9&-6 | 3% | 2%[15.4 µM] | 2.1% | -0.7&0.1 | 0.0
Cc1nc(/N=C\c2ccc(N(C)C)cc2)sc1C | -13 | 3% | / | -1.7% | -0.7 | /
COC(=O)CCC/C=C1/SCC(NC(=O)c2ccccc2)/C1=N/O (stereo unspecified) | 19 | 8% | -4%[15.4 µM] | / | 1.5 | -1.1
C=C(C)Cn1c(CCNC(=O)CC)nc2ccccc21 | 22 | 5% | -60%[inhibitor] | 32µM* | -0.5 | -5.8
O=C(CSc1nc(O)cc(=O)[nH]1)N1c2ccccc2CCc2ccccc21 | 3 | 1% | 5%[15.4 µM] | / | 0.6 | 1.7
CCOC(=O)c1[nH]c2ccc(F)cc2c1NC(=O)Nc1ccccc1OC | -12 | -19% | ? | -3.7% | -0.9 | 3.6
CC(C)OC(=O)c1cc(NC(=O)c2nn(C)cc2Br)cc(C(=O)OC(C)C)c1 | 26 | -10% | 21% | ? | 2.1 | 1.4
N#Cc1ccc(NC(=O)COC(=O)C2CCC2)cc1 | -7 | / | -37%[inhibitor] | -1.4% | -0.4 | /
CC(C)Cc1nc2c(nnn2Cc2ccccc2F)c(=O)[nH]1 | 3 | 8% | -6% | -5.3% | 1.4 | 2.3
CC(C)CCNC(=O)c1cnc2sc(N3CCCCCC3)nn2c1=O | -16 | / | / | 13µM* | -0.1 | /
O=C(CCC1N=C2c3ccccc3N=C(SCc3cccc(F)c3)N2C1=O)NC1CCCCC1 (stereo unspecified) | -10 | / | / | -23% | 0.5 | /
COc1ccc(-c2nc(Cn3c(SCc4ccc(C)cc4)nc4ccncc43)c(C)o2)cc1OC | 7 | 0% | 26% | ? | 0.6 | ?
Cn1c(=O)n(C)c2cc(N3CCOCC3)c(NC(=O)c3ccc(C(C)(C)C)cc3)cc21 | 1 | / | / | -1.9% | -0.5 | /
CS(=O)(=O)N(CC(=O)NCC1CCCO1)c1cc(Cl)c(Cl)cc1Cl (stereo unspecified) | 0 | -2% | -1% | / | 1.2 | -1.9
COCC(C)NC(=O)c1cc2c(ccc3ccccc32)oc1=O (stereo unspecified) | / | -9% | -15% | 4.2% | / | 6.7
CC(C)Cn1nc(NC(=O)c2cccs2)c2cc3ccccc3nc21 | 14 | -15% | 21% | -14% | 0.1 | 4.4
O=C1C=C(c2cccs2)C[C@H](c2ccccc2)[C@H]1n1nnc([N+](=O)[O-])n1 | -5 | -4% | 9% | -6.1% | 19 | 3.4
COc1ccc(C(C(=O)NC(C)(C)C)N(CCO)C(=O)CCC(=O)Nc2cc(C)on2)cc1 (stereo unspecified) | -10 | 17% | -3%[15.4 µM] | 0.6% | -0.6 | 0.3
Nc1ccc2nc(-c3ccccc3)c(-c3ccccc3)nc2c1 | -12 | 18% | -24%[15.4 µM] | / | 21 | /
COc1ccc(CCNC(=S)Nc2ccc(C)cc2C)cc1 | 10 | 6% | 21% | -1.9% | 1.8 | 1.5
Cn1cc(Br)c(C(=O)NN2C(=O)C3C4C=CC(C5CC45)C3C2=O)n1 (stereo unspecified) | 2 | 17% | ? | 1.6% | -0.5 | -3.4
(next part)
SMILES | TRPML1 blocker | gsp antag | gsp agonist | ClpP mod | TRPML1 agonist | Menin MLL FP FL
O=S(=O)(c1cccc(-c2cn3cccnc3n2)c1)N1CCOCC1 | -7 | 37%[activator] | 18µM* | -14% | -0.8 | -5.0
CCCc1ccccc1OCCNS(=O)(=O)c1cc2c(cc1C)OCC(=O)N2 | 3 | -24% | 2%[15.4 µM] | 0.7% | -1.2 | -1.0
O=C(COC(=O)COc1ccc(Cl)cc1)Nc1cccnc1Cl | 19 | / | -34%[inhibitor] | 0.6% | -0.5 | /
Brc1cnc2nc(SCc3nc4ccccc4[nH]3)[nH]c2c1 | 19 | -12% | 5% | -0.3% | 4.5 | -1.7
CCOC(=O)c1c(NC(=O)CN2C(=O)NC(C)(c3ccc(Cl)cc3)C2=O)sc(C(=O)NC)c1C (stereo unspecified) | 16 | -11% | 9% | -5.8% | 1.2 | 4.6
C[n+]1cc(C(=O)N2CCCCC2)ccc1/C=C/c1c[nH]c2ccccc12 | 2 | ? | -17% | / | 7.0 | ?
Cc1cc(OCC(=O)N2CCN(c3ccccn3)CC2)cc(C)c1Br | 6 | -21% | -15% | ? | 0.4 | 1.8
COc1cccc(CN2CCN(Cc3[nH]c4ccccc4c3C)CC2CCO)c1 (stereo unspecified) | -5 | 10% | -50%[inhibitor] | / | 0.0 | 1.0
CCC(C)C1C(C#N)=C(N)Oc2n[nH]c(C)c21 (stereo unspecified) | 20 | 5% | -2% | 0.2% | -0.9 | 1.7
CCOC(=O)c1cn(CC(=O)Nc2ccccc2C(=O)OCC)nn1 | -10 | 1% | -4% | ? | 1.2 | 2.0
CCCCN1CC(CO)Oc2cccc(F)c2S1(=O)=O (stereo unspecified) | 15 | 3% | / | 0.1% | -1.1 | /

Record cards, as listed above. Order of values: TRPML1 blocker	gsp antag	gsp agonist	ClpP mod	TRPML1 agonist	Menin MLL FP FL
CCCCN1CC(CO)Oc2cccc(F)c2S1(=O)=O (stereo unspecified) across the screens: 15	3%	/	0.1%	-1.1	/
CCOC(=O)c1cn(CC(=O)Nc2ccccc2C(=O)OCC)nn1 across the screens: -10	1%	-4%	?	1.2	2.0

gsp antag, entries above that show a hit.
smiles | TRPML1 blocker | gsp antag | gsp agonist | Menin MLL FP FL
COc1ccccc1NC(=O)c1ccccc1Oc1ccccc1 | -5 | 5.6µM* | -7% | 3.1
